Bioassay records from PubChem.
GIV-Gai inh – GIV-Galpha-i interaction inhibition. actives 0.42% (n = 210,000). percent of control (FP), % (no concentration beside the values). P08753. AID 1224905. Galpha-i3/FITC-GIV peptide fluorescence polarization, 90 min; stronger effect = lower value; scaled: aluminum fluoride 0%, vehicle 100%;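 active = replicate mean at 85% of control or lower, very high polarization wells dropped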;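 also: wells of about 15 µL received 100 nL stock; the first replicate is given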
Target sequence (P08753 whole entry, looked up): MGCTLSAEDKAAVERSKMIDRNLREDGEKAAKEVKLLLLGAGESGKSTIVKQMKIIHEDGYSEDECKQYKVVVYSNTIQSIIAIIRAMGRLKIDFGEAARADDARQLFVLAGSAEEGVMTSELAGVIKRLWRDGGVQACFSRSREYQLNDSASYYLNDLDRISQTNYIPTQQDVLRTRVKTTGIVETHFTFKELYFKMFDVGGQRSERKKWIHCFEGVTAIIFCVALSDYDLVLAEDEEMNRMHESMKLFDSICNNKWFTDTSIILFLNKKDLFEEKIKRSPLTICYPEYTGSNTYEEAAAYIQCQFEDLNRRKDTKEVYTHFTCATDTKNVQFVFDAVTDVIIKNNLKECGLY
Sa growth 42C – blocks Staphylococcus aureus growth. actives 0.53% (n = 170,000). AID 720641. S. aureus RN4220 growth, OD600, 20 h, 42 °C; stronger effect = lower value. relative growth, % (no concentration beside the values);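 active = growth at 42 °C up to 50% and 20 or more points under that at 30 °C, or under 10% at both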;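 also: 300 nL library stock went into each well; scaled to the means of positive and negative controls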
HCMV UL50-53 inh – cytomegalovirus nuclear egress complex inhibition | HTRF UL50-UL53 interaction, normalized percent inhibition | inhibition, % (concentration not given with the values) | actives 0.15% (n = 190,000) | AID 1918969;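 active = both replicates at 50% or more, plus weaker picks with an unusually low signal ratio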;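 also: stock transfer was 100 nL into about 20 µL; 0% = negative control wells and 100% = wells with untagged competitor protein; inactives centre near -12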
Sa growth 42C second temp – second read-out of Sa growth 42C, no call of its own (marks repeat the call); relative growth, %; measured here: growth at 30 °C;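 optical density after 20 h as mean of two plates; 100% = untreated growth and lower means inhibition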
Active calls of the source: *; & = joins results of further samples. An unsorted share of the library (roughly 0.8% active in at least one column).

Start of the listing, in advance, eleven compounds:
`C(=N\n1cnnc1)/c1ccc(N2CCOCC2)s1` gave Sa growth 42C 82, HCMV UL50-53 inh -88 and Sa growth 42C second temp 92.
CCOC(=O)CSc1ccccn1 was read as GIV-Gai inh 95, Sa growth 42C 95, HCMV UL50-53 inh -37 and Sa growth 42C second temp 101.
For O=C(O)CSc1nc2ccccc2c2nc3ccccc3n12 the results were Sa growth 42C 99, HCMV UL50-53 inh 3 and Sa growth 42C second temp 97.
Cc1ccccc1Cn1c(CN2CCN(c3cc(Cl)ccc3C)CC2)nc2c1c(=O)[nH]c(=O)n2C was read as GIV-Gai inh 102, Sa growth 42C 94, HCMV UL50-53 inh 7 and Sa growth 42C second temp 102.
O=C(Cc1nnc(-c2ccc(Br)cc2)o1)NC1CCCCCC1 was read as GIV-Gai inh 103, Sa growth 42C 111, HCMV UL50-53 inh -15 and Sa growth 42C second temp 93.
Screening COc1ccc(C)cc1NC(=O)N1CCCn2nc(C)cc21 returned GIV-Gai inh 101, Sa growth 42C 90 and Sa growth 42C second temp 85.
For O=C1CSC(=S)N1CC1CC1 the results were GIV-Gai inh 103, Sa growth 42C 101, HCMV UL50-53 inh 10 and Sa growth 42C second temp 83.
COc1ccc(-c2noc(N3CCCC3)n2)cc1OC was read as GIV-Gai inh 102, Sa growth 42C 107 and Sa growth 42C second temp 82.
`O=C(O)CN1C(=O)COc2ccc(Cl)cc21` gave GIV-Gai inh 93 and HCMV UL50-53 inh -28.
Screening COc1cc(C2NC(=O)NC(C)=C2C(=O)OCCc2ccccc2)cc(OC)c1OC (configuration not stated) returned GIV-Gai inh 105 and HCMV UL50-53 inh -10.
Screening COc1ccc(Cn2c(CCC(=O)Nc3ccccc3)nc3cccnc32)cc1 returned GIV-Gai inh 98&103, Sa growth 42C 91, HCMV UL50-53 inh 3&-26 and Sa growth 42C second temp 88.

The list itself (from the top)
`C(=N\n1cnnc1)/c1ccc(N2CCOCC2)s1` gave Sa growth 42C 82, HCMV UL50-53 inh -88 and Sa growth 42C second temp 92.
CCOC(=O)CSc1ccccn1 was read as GIV-Gai inh 95, Sa growth 42C 95, HCMV UL50-53 inh -37 and Sa growth 42C second temp 101.
For O=C(O)CSc1nc2ccccc2c2nc3ccccc3n12 the results were Sa growth 42C 99, HCMV UL50-53 inh 3 and Sa growth 42C second temp 97.
Cc1ccccc1Cn1c(CN2CCN(c3cc(Cl)ccc3C)CC2)nc2c1c(=O)[nH]c(=O)n2C was read as GIV-Gai inh 102, Sa growth 42C 94, HCMV UL50-53 inh 7 and Sa growth 42C second temp 102.
O=C(Cc1nnc(-c2ccc(Br)cc2)o1)NC1CCCCCC1 was read as GIV-Gai inh 103, Sa growth 42C 111, HCMV UL50-53 inh -15 and Sa growth 42C second temp 93.
Screening COc1ccc(C)cc1NC(=O)N1CCCn2nc(C)cc21 returned GIV-Gai inh 101, Sa growth 42C 90 and Sa growth 42C second temp 85.
For O=C1CSC(=S)N1CC1CC1 the results were GIV-Gai inh 103, Sa growth 42C 101, HCMV UL50-53 inh 10 and Sa growth 42C second temp 83.
COc1ccc(-c2noc(N3CCCC3)n2)cc1OC was read as GIV-Gai inh 102, Sa growth 42C 107 and Sa growth 42C second temp 82.
`O=C(O)CN1C(=O)COc2ccc(Cl)cc21` gave GIV-Gai inh 93 and HCMV UL50-53 inh -28.
Screening COc1cc(C2NC(=O)NC(C)=C2C(=O)OCCc2ccccc2)cc(OC)c1OC (configuration not stated) returned GIV-Gai inh 105 and HCMV UL50-53 inh -10.
Screening COc1ccc(Cn2c(CCC(=O)Nc3ccccc3)nc3cccnc32)cc1 returned GIV-Gai inh 98&103, Sa growth 42C 91, HCMV UL50-53 inh 3&-26 and Sa growth 42C second temp 88.
Screening CC(C)OC(=O)c1cn(CCC#N)nc1-c1ccccc1 returned GIV-Gai inh 105, Sa growth 42C 80 and Sa growth 42C second temp 81.
For O=C(N=C1N=c2ccccc2=N1)c1ccc2c(O)n(Cc3ccncc3)c(O)c2c1 the results were Sa growth 42C 85, HCMV UL50-53 inh -45 and Sa growth 42C second temp 90.
For OC1CCN(Cc2ccc[nH]2)CC1 the results were GIV-Gai inh 111, Sa growth 42C 81, HCMV UL50-53 inh -10 and Sa growth 42C second temp 88.
`CC(CN(C)Cc1ccccc1)OC(=O)C1COc2ccccc2O1` (configuration not stated) gave GIV-Gai inh 97, Sa growth 42C 104 and Sa growth 42C second temp 83.
For Cc1cc(-c2nc3ncccc3o2)ccc1NC(=O)c1ccccc1Br the results were GIV-Gai inh 104, Sa growth 42C 113, HCMV UL50-53 inh -5 and Sa growth 42C second temp 93.
For CCC(C(=O)N1CCN(c2ccccn2)CC1)c1ccccc1 (configuration not stated) the results were GIV-Gai inh 101, Sa growth 42C 88, HCMV UL50-53 inh -10 and Sa growth 42C second temp 78.
`COC(=O)Cn1c(=O)c(C(=O)CSc2nnc(C)c(=O)n2N)c(N)n(Cc2ccccc2)c1=O` gave Sa growth 42C 102, HCMV UL50-53 inh -21 and Sa growth 42C second temp 85.
`O=C(O)COCC(=O)Nc1ccc(N2CCOCC2)nc1N1CCOCC1` gave GIV-Gai inh 103, Sa growth 42C 92, HCMV UL50-53 inh -20 and Sa growth 42C second temp 80.
`C=CCN(C(C)=O)c1nc(C)c(Br)c(OC)n1` gave GIV-Gai inh 104, Sa growth 42C 88 and Sa growth 42C second temp 92.
For COCCCNC(=O)CSc1nc2c(sc3ccccc32)c(=O)n1CCCC(=O)NCCOC the results were GIV-Gai inh 99, Sa growth 42C 113, HCMV UL50-53 inh -14 and Sa growth 42C second temp 88.
CCS(=O)(=O)CCSc1nc2ccccc2o1 was read as GIV-Gai inh 105, Sa growth 42C 95, HCMV UL50-53 inh 9 and Sa growth 42C second temp 96.
For O=C(C1CCN(c2ccc(-c3cccs3)nn2)CC1)N1CCc2ccccc21 the results were GIV-Gai inh 108, Sa growth 42C 93, HCMV UL50-53 inh -8 and Sa growth 42C second temp 88.
For Cc1cccc(CCNC(=O)C2CCC(CNS(=O)(=O)c3ccccc3)CC2)c1 (configuration not stated) the results were GIV-Gai inh 101, Sa growth 42C 103 and Sa growth 42C second temp 89.
CC1CCc2nn(CC(=O)Nc3cccc(C(F)(F)F)c3)c(=O)cc2C1 (configuration not stated) was read as GIV-Gai inh 100, Sa growth 42C 125 and Sa growth 42C second temp 91.
`O=C(NC1CCCCC1)c1cc2c(=O)oc3ccccc3c2s1` gave GIV-Gai inh 101, Sa growth 42C 117, HCMV UL50-53 inh -6 and Sa growth 42C second temp 84.
For O=C(OCc1cc(=O)n2cc(Br)ccc2n1)C1=COCCO1 the results were Sa growth 42C 92, HCMV UL50-53 inh -22 and Sa growth 42C second temp 100.
O=c1cc(-c2ccccc2)nc(SCc2nc(-c3cccs3)no2)[nH]1 was read as GIV-Gai inh 99, Sa growth 42C 98 and Sa growth 42C second temp 82.
CN(Cc1ccccc1)C(=O)c1nn2c(C(F)(F)F)cc(-c3ccco3)nc2c1Cl was read as GIV-Gai inh 99 and HCMV UL50-53 inh -49.
For CS(=O)(=N/C=C(\C#N)S(=O)(=O)c1ccccn1)c1ccc(Cl)cc1 (configuration not stated) the results were GIV-Gai inh 103, Sa growth 42C 95, HCMV UL50-53 inh 6 and Sa growth 42C second temp 89.
For Cn1c(=O)n(C)c2cc(CNc3ccc4c(c3)OCCO4)ccc21 the results were GIV-Gai inh 103 and HCMV UL50-53 inh -12.
Screening Cc1ccc(NC(=O)c2c(C)oc3ncn(CC(C)C)c(=O)c23)nc1 returned GIV-Gai inh 113, Sa growth 42C 102 and Sa growth 42C second temp 95.
Screening O=C(Cc1ccccc1)OCCN1C(=O)c2cccc3c(N4CCCCC4)ccc(c23)C1=O returned GIV-Gai inh 116 and HCMV UL50-53 inh 9.
For O=c1oc(-c2cc3ccccc3o2)nc2sc3c(c12)CCCC3 the results were GIV-Gai inh 102, Sa growth 42C 121 and Sa growth 42C second temp 97.
Screening CC1(C)C(=O)N(CC(=O)NCc2ccccn2)c2ccc(S(=O)(=O)N3CCCCC3)cc21 returned GIV-Gai inh 106 and HCMV UL50-53 inh -4.
For O=C(CSc1ccc2c(c1)OCCO2)NCc1ccco1 the results were Sa growth 42C 100, HCMV UL50-53 inh -17 and Sa growth 42C second temp 94.
`Cc1ccccc1CNC(=O)c1ccc(NC(=O)c2nsc3ccccc23)cc1` gave GIV-Gai inh 102, Sa growth 42C 122 and Sa growth 42C second temp 84.
For CC(C)c1ccc(C2C3CN(C(C)C)CC=C3C(C#N)=C(N)C2(C#N)C#N)cc1 (configuration not stated) the results were GIV-Gai inh 125, Sa growth 42C 89, HCMV UL50-53 inh -42 and Sa growth 42C second temp 49.
CSc1ccccc1N1CCN(CCCCCC(=O)NC2CCCc3ccccc32)CC1 (configuration not stated) was read as GIV-Gai inh 96 and HCMV UL50-53 inh -25.
Screening O=C(Nc1ccc2c(c1)OCO2)Nc1cnn(Cc2ccc(Br)cc2)c1 returned GIV-Gai inh 108, Sa growth 42C 91, HCMV UL50-53 inh 6 and Sa growth 42C second temp 97.
Screening COc1ccc(C(=O)N2CCCCC2CCN2CCOCC2)cc1 (configuration not stated) returned GIV-Gai inh 101, Sa growth 42C 91, HCMV UL50-53 inh -35 and Sa growth 42C second temp 90.
Screening C=C(C)CSc1n[nH]c(=S)s1 returned Sa growth 42C 61, HCMV UL50-53 inh -3 and Sa growth 42C second temp 36.
`O=S(=O)(NC1CC1)c1ccc2ccccc2c1` gave GIV-Gai inh 103, Sa growth 42C 100, HCMV UL50-53 inh -20 and Sa growth 42C second temp 91.
For Cc1ccc(NC(=O)c2cnc3sccn3c2=O)cc1 the results were Sa growth 42C 109, HCMV UL50-53 inh 4 and Sa growth 42C second temp 90.
`CC(=O)N1CC(C)OC1c1ccccc1` (configuration not stated) gave GIV-Gai inh 105, Sa growth 42C 98, HCMV UL50-53 inh -13 and Sa growth 42C second temp 87.
`COc1cccc2cc(-c3nc(-c4ccc(C)cc4)c(C)s3)c(=O)oc12` gave GIV-Gai inh 110, Sa growth 42C 109 and Sa growth 42C second temp 93.
`COc1cccc(C=Nc2ccc(-c3nc4ccc(C)cc4o3)cc2)c1O` gave Sa growth 42C 119, HCMV UL50-53 inh -10 and Sa growth 42C second temp 92.
Screening Cc1cccc(NC(=O)Nc2ccc(Nc3cc(N(C)C)nc(C)n3)cc2)c1 returned GIV-Gai inh 103 and HCMV UL50-53 inh 6.
Cc1cc(=O)n2nc(N(C)CC(=O)NCc3ccccc3C)sc2n1 was read as GIV-Gai inh 97, Sa growth 42C 96, HCMV UL50-53 inh -17 and Sa growth 42C second temp 88.
For CCOc1ccc(N2CCc3c2nc2ccc(Br)cc2c3N)cc1 the results were GIV-Gai inh 117, Sa growth 42C 109 and Sa growth 42C second temp 39.
`O=C1NC(c2ccccc2)=N/C1=C\c1ccco1` gave Sa growth 42C 99, HCMV UL50-53 inh -9 and Sa growth 42C second temp 78.
For CN(C1CCCCC1)S(=O)(=O)c1ccc2c(c1)c(=O)c(C(=O)NCCN1CCCC1)cn2C the results were GIV-Gai inh 107, Sa growth 42C 83 and Sa growth 42C second temp 92.
`Cc1ccccc1Nc1nc(N)nc(COC(=O)Cn2[nH]c(=O)c3ccccc3c2=O)n1` gave Sa growth 42C 119, HCMV UL50-53 inh -2 and Sa growth 42C second temp 99.
CC(=O)Nc1c2n(c3ccc(F)cc13)CC(C)(C(=O)NC1CCCC1)N(c1cc(C)ccc1C)C2=O (configuration not stated) was read as GIV-Gai inh 102 and HCMV UL50-53 inh -20.
For Fc1ccccc1-n1ncc2c1ncn1nc(-c3ccccc3Cl)nc21 the results were GIV-Gai inh 99, Sa growth 42C 102, HCMV UL50-53 inh -10 and Sa growth 42C second temp 85.
N=c1sc2ccccc2n1-c1ccccc1 was read as Sa growth 42C 99, HCMV UL50-53 inh -11 and Sa growth 42C second temp 90.
For Cc1ccc(CNc2ncnc3c2nc2n3CCCC2)cc1 the results were GIV-Gai inh 106, Sa growth 42C 120 and Sa growth 42C second temp 80.
CCc1ccccc1NC(=O)CNC1CCCCC1 was read as GIV-Gai inh 102, Sa growth 42C 123, HCMV UL50-53 inh 5 and Sa growth 42C second temp 94.
CN(CC(=O)Nc1ccc2c(c1)CCC2)Cc1cccc(F)c1 was read as Sa growth 42C 102, HCMV UL50-53 inh -7 and Sa growth 42C second temp 90.
O=C(CN1CCCN(Cc2cccc(Cl)c2)S1(=O)=O)Nc1ccc2c(c1)OCCO2 was read as GIV-Gai inh 101&96, Sa growth 42C 77, HCMV UL50-53 inh -13 and Sa growth 42C second temp 77.
`CCc1ccc(S(=O)(=O)Nc2ccc3oc(=O)sc3c2)cc1` gave GIV-Gai inh 102, Sa growth 42C 59 and Sa growth 42C second temp 45.
For Cc1ccc(C(C)C)c(OCC(=O)NC2CCN(C)CC2)c1 the results were GIV-Gai inh 107, Sa growth 42C 119, HCMV UL50-53 inh -3 and Sa growth 42C second temp 89.
FC(F)(F)c1ccncc1-c1noc(-c2ccccc2)n1 was read as GIV-Gai inh 102, Sa growth 42C 122, HCMV UL50-53 inh -4 and Sa growth 42C second temp 91.
`Cc1ccc(C)c(NC(=O)Cn2c(=O)n(Cc3ccccc3)c(=O)c3oc4ccccc4c32)c1` gave GIV-Gai inh 101, Sa growth 42C 106 and Sa growth 42C second temp 92.
